# CDC25B-CDK2 inh: human CDC25B-CDK2/CyclinA binding inhibition; HTRF CDC25B-CDK2/CyclinA binding, anti-His/anti-Flag; hits give high values; z-score (no concentration beside the values); 0.72% of 94,000 active; AID 1259370;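 note: score is relative to mean and SD of negative controls; strong numbers were not always called active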
# TAR Tat displ: HIV-1 TAR-Tat binding disruption | HIV-1 TAR RNA, Tat peptide displacement FRET; hits give high values | z-score (no concentration beside the values) | 0.6% of 100,000 active;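 note: score is relative to mean and SD of negative controls; some compounds called inactive have numbers as strong as hits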
# An asterisk follows results filed as active; . = no result given.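 Rule for the calls: active = z-score from 3 up in half or more of its runs; inactive = the rest.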
SMILES	CDC25B-CDK2 inh	TAR Tat displ
CCN(CC)C(=O)CSc1nnc(-c2nonc2NC(C)=O)n1-c1ccccc1	-0.28	0.23
CCCOC(=O)C1=C(C)NC2=C(C(=O)CCC2)C1c1ccccc1OCc1ccccc1 (centres undefined)	.	0.16
CN(Cc1ccccc1)Cc1csc2c1CCCC2	.	-0.24
CCC(CC)C(=O)Nc1nnc(SCc2cc(=O)n3oc(C)cc3n2)s1	.	1.06
O=C(NCc1ccco1)C1CCCN(c2cnccn2)C1 (centres undefined)	-0.65	-0.76
CCCSCCCNC(=O)Cn1c2ccccc2c2nc(=O)cc(C)n21	-1.09	-0.32
CCCCc1ccc(-c2nc(-c3ccncc3)no2)cc1	-0.76	0.15
COc1ccc(OC)c(C2=NOC(C(=O)NCC3CCCO3)C2)c1 (centres undefined)	-1.41	-1.13
CCOC(=O)Cc1csc(NC(=O)Nc2cc(F)ccc2F)n1	-0.7	0.87
CC1C/C(=N\O)c2ccccc21 (centres undefined)	-0.96	.
CCC1CN(C(=O)N2CCC(C(=O)N3CCCCC3)CC2)c2ccccc2O1 (centres undefined)	.	1.05
COc1ccc(-c2noc(N(C)Cc3ccccc3)n2)cc1	.	-0.03
CCOc1ccc(N2C(=O)C3CN=NC3(C)C2=O)cc1 (centres undefined)	0.97	0.84
CN(C)c1ccc(NC(=O)c2cc3c(n(-c4ccccc4)c2=O)CC(C)(C)CC3=O)cc1	-0.84	-0.47
CCCCc1c(C)nc(Nc2ccc(C(=O)O)cc2)[nH]c1=O	-1	-0.23
COC(=O)c1cc(NC(=O)c2cc(OC)cc(OC)c2)cc(C(=O)OC)c1	-3.71	.
Cn1c2c(c(=O)n3ncc(C(=O)O)c13)CN(Cc1ccccc1)CC2	-2.08	-1.03
CCOC(=O)N1CCC(N2CCN(S(=O)(=O)c3ccccc3)CC2)CC1	0.15	-0.56
Cc1cccc(C(=O)Oc2ccc3oc(=O)sc3c2)c1	-1.71	0.9
O=C(c1ccco1)N1CCC2(Cl)CCCCC2C1c1ccccc1 (centres undefined)	1	0.49

# Going on with the list.
SMILES	CDC25B-CDK2 inh	TAR Tat displ
CCCN(CCC)C1=C(C(=O)c2ccccc2)N(CC(N)=O)S(=O)(=O)c2ccccc21	-1.26	0.68
Cn1c(=O)c2c(nc(CN3CCN(CCO)CC3)n2Cc2c(F)cccc2Cl)n(C)c1=O	0.04	1
Cc1c(C(=O)N(C)C)sc2[nH]c(=S)n(CCc3ccccc3)c(=O)c12	-3.04	.
CC1(C)CC(=O)C2=C(C1)Nc1ccccc1N(CC(=O)NCC1CCCO1)C2c1ccco1 (centres undefined)	.	-1.16
Cc1ccc[n+](CC(=O)c2ccccc2)c1	-1.79	.
COc1cc(C2Nc3cc(C)c(C)cc3NC3=C2C(=O)CC(C)(C)C3)cc(Br)c1OC (centres undefined)	-1.31	0.92
O=C1CC(c2cccc(F)c2F)c2c(nc(SCc3ccccc3)[nH]c2=O)N1 (centres undefined)	-1.12	0.15
CCc1ccc(-c2cc(C)no2)cc1S(=O)(=O)N1CC(C)Sc2ccccc21 (centres undefined)	.	1.88
Cn1c(=O)c2c(SCC(N)=O)nc(-c3ccc(F)cc3)nc2n(C)c1=O	-1.28	.
CC1Cc2cc(S(=O)(=O)N3CCCC(C(=O)NCc4ccco4)C3)ccc2N1C(=O)C1CC1 (centres undefined)	.	0.32
Cc1noc2ncnc(N3CCC(C(=O)N4CCc5ccccc5C4)CC3)c12	.	-0.18
CCSCCOC(=O)C1=C(C)NC2=C(C(=O)C(C(=O)OC)C(C)C2)C1c1ccc(N(C)C)cc1 (centres undefined)	0.68	1.13
COc1cc(C2N=C(N)Nc3nc4ccccc4n32)ccc1O (centres undefined)	-0.26	-0.76
CCC(C)Oc1ccccc1C1CC(=O)NC2=C1C(=O)CC(C)(C)C2 (centres undefined)	-0.86	1.15
CCC(C(=O)NC(C)C)n1nc(C)n2c(cc3sccc32)c1=O (centres undefined)	-0.2	-1.54
Cc1cccc(C(=O)Nc2nnc(SCc3cc(=O)n4cc(C)ccc4n3)s2)c1	.	0.32
COc1cc(NS(=O)(=O)c2ccc3[nH]c4c(c3c2)CCCCC4)cc(OC)c1	.	2.95
CCOC(=O)c1cc(NC(=O)c2ccc(C(C)(C)C)cc2)c(=O)n2c1oc1cc(Cl)ccc12	-0.58	-2.87
CCc1ccc2oc(C(=O)N(Cc3ccc(C(C)C)cc3)C3CCS(=O)(=O)C3)cc(=O)c2c1 (centres undefined)	0.67	-0.49
CCOC(=O)C1=NNC2C(=O)N(c3cccc(OC)c3)C(=O)C12 (centres undefined)	-2.59	0.35

# Fetched one by one from the list above (3):
SMILES	CDC25B-CDK2 inh	TAR Tat displ
Cc1cccc(C(=O)Nc2nnc(SCc3cc(=O)n4cc(C)ccc4n3)s2)c1	.	0.32
CC1Cc2cc(S(=O)(=O)N3CCCC(C(=O)NCc4ccco4)C3)ccc2N1C(=O)C1CC1 (centres undefined)	.	0.32
Cc1c(C(=O)N(C)C)sc2[nH]c(=S)n(CCc3ccccc3)c(=O)c12	-3.04	.

# An excerpt of these results, as labelled records.
SMILES: Cc1noc2ncnc(N3CCC(C(=O)N4CCc5ccccc5C4)CC3)c12
  CDC25B-CDK2 inh: .; TAR Tat displ: -0.18

SMILES: CCC(C)Oc1ccccc1C1CC(=O)NC2=C1C(=O)CC(C)(C)C2 (centres undefined)
  CDC25B-CDK2 inh: -0.86; TAR Tat displ: 1.15

SMILES: Cn1c(=O)c2c(SCC(N)=O)nc(-c3ccc(F)cc3)nc2n(C)c1=O
  CDC25B-CDK2 inh: -1.28; TAR Tat displ: .

SMILES: COc1cc(NS(=O)(=O)c2ccc3[nH]c4c(c3c2)CCCCC4)cc(OC)c1
  CDC25B-CDK2 inh: .; TAR Tat displ: 2.95

# Remaining list, next part:
SMILES	CDC25B-CDK2 inh	TAR Tat displ
Cc1nn(C(C)(C)C)c(C)c1/C=N/O	-1.87	.
C=CCNC(=O)N1CC(OS(C)(=O)=O)C1	-2.94	.
CCOC(=O)c1cnc(C(F)(F)F)nc1Sc1n[nH]c(-c2cccs2)n1	-0.15	.
Cc1nc(N2CCN(CCO)CC2)nc2c1C(=O)CC(c1cccs1)C2 (centres undefined)	-1.95	2.68
C[N+]1(C)CCC[C@H]1C(=O)[O-]	.	2.26
O=C(NCc1ccc2c(c1)OCO2)c1ccc(N2CCOCC2)nc1	-1.56	.
O=C(Nc1cccnc1)c1cc2n(n1)C(C(F)(F)F)CC(c1ccc(Br)cc1)N2 (centres undefined)	0.86	1.25
O=c1c(NCCC2=CCCCC2)nccn1-c1cccc(Cl)c1	.	0.36
Cc1cc(-c2nnc(COc3ccc4c(c3C)OC(C)(C)CC4=O)o2)ccc1[N+](=O)[O-]	-2.08	.
CCN(CC)c1ccc(C2N=C(N)Nc3nc4ccccc4n32)cc1 (centres undefined)	-0.6	0.71
CNc1nc(N2CCc3ccccc32)ncc1F	-2.82	0.4
Cc1nc2sc(C(c3ccc(Br)cc3)N3CCN(CCO)CC3)c(O)n2n1 (centres undefined)	-0.48	.
COc1nccn(-c2ccc(F)c(Cl)c2)c1=O	0.35	0.23
CCOC(=O)c1c(NC(=O)N2CCOc3ccc(C)cc32)sc2c1CCCC2	.	2.35
CCOC(=O)C1CCN(C(=O)c2cc3c(s2)-c2ccsc2CC3)CC1	.	0.81
N/C(=N/OC(=O)NC(=O)c1c(Cl)cccc1Cl)c1ccc(F)cc1F	0	.
COc1ccc(OCc2nc(C#N)c(NCCCn3ccnc3)o2)cc1	0.51	-0.93
CNC(=O)c1c(NC(=O)c2cc(-c3ccc4c(c3)OCCO4)on2)sc2c1CCCC2	-0.07	1.19
CC(=O)NC1=NN(C(C)=O)C(c2ccc(-c3ccccc3Cl)o2)S1 (centres undefined)	0.42	0.44
Fc1ccccc1C(Nc1ccc2c(c1)OCO2)c1nnc(-c2ccccc2)o1 (centres undefined)	.	0.23

# (continued)
SMILES	CDC25B-CDK2 inh	TAR Tat displ
Cc1cccc(-n2c(C)c(C)c3c2ncn2nc(-c4ccncc4)nc32)c1C	-2.51	1.67
CSc1ccc(C2CC(=O)N3CN(Cc4ccco4)CSC3=C2C#N)cc1 (centres undefined)	1.96	0.97
CCN1CCN(C(=O)c2sc3nc4n(c(=O)c3c2C)CCCC4)CC1	.	1.01
O=C(Nc1cccc2nsnc12)C1CCC1	.	-0.52
Cc1cc2nc(NC3=NCN(CCCN4CCOCC4)CN3)nc(C)c2cc1C	0.99	0.9
Cc1cc(C)cc(Nc2c(-c3cc(C)c(C)cc3C)c(=O)c2=O)c1	.	0.28
CCC(CC)C(=O)OCc1cc(=O)n2ccsc2n1	.	1.46
Cn1nc(Br)nc1Sc1ccccc1NC(=O)C1CC1	.	1.93
Cc1cc(C)c(NC(=O)C(C)n2c3ccccc3c3nc(=O)cc(C)n32)c(C)c1 (centres undefined)	-2.14	0.96
CC1=C(/C=C/C(C)=C/C=C/C(C)=C/C=C/C=C(C)/C=C/C=C(C)/C=C/C2=C(C)C(=O)CCC2(C)C)C(C)(C)CCC1=O	.	0.97
O=C(CSc1nncn2c1cc1occc12)Nc1ccc(Cl)cc1F	.	3.18
c1ccc(COc2ccccc2OCc2ccccc2)cc1	-0.62	-0.14
CCC(=O)N1CCc2cc(S(=O)(=O)NC(CC(C)C)C(=O)Nc3nccs3)ccc21 (centres undefined)	-0.26	0.65
Cc1n[nH]c(C)c1Sc1nc2ccccc2s1	1.19	.
CN(CCO)Cc1cc(N2CCN(C(=O)c3ccco3)CC2)c2c3c(onc13)-c1ccccc1C2=O	-1.25	-1.03
Cc1ccccc1N1OC2C(=O)N(c3ccccc3)C(=O)C2C1c1ccco1 (centres undefined)	-1.92	.
CCc1ccccc1OCCSc1nc(-c2cccs2)nc2cc(=O)[nH]n12	.	2.03
O=C(c1cnn(-c2ccc(F)cc2)c1-n1cccc1)N1CCc2ccccc21	.	-0.05
Cc1ccc(/C(O)=C2\C(=O)C(=O)N(CCCN3CCOCC3)C2c2ccco2)cc1 (centres undefined)	0.35	0.95
CC(C)CNC(=O)N1c2ccccc2Sc2ccccc21	-0.08	4.05

# New compounds follow:
SMILES	CDC25B-CDK2 inh	TAR Tat displ
COc1ccc(NC(=O)c2cc3c(s2)-c2ccsc2CC3)cc1OC	.	0.74
Cn1c(=O)[nH]c2nnc(-c3ccccn3)nc2c1=O	-1.24	2.89
Cc1csc2nc(COC(=O)C(C)(C)C)cc(=O)n12	.	0.97
COc1cc(Cl)c(NS(=O)(=O)c2c(C(=O)N3CCCC3)c(C)n(C)c2C)c(OC)c1	.	0.46
O=C(NC1CCCCC1)c1cc2c(Cl)ccc3c2n1CCO3	.	0.4
C=CCNC(=O)c1ccc2c(=O)[nH]c3c(C(=O)NC(C)C)sc(=S)n3c2c1	.	4.67
CCc1ccc(S(=O)(=O)c2nnn3c2nc(NCCN(C)C)c2sccc23)cc1	.	-0.69
COc1ccc(Nc2nc(-c3ccc(OC)c(OC)c3)no2)cc1OC	.	2.67
COc1ccc(Cl)cc1NS(=O)(=O)c1cc(-c2cnc(C3CC3)o2)ccc1C	.	1.02
CCOC(=O)c1c(C)noc1/C(C)=N/OC(=O)Nc1cccc(C(F)(F)F)c1	-1.49	.
O=C(NCC1CCCO1)C1c2ccccc2Oc2ccccc21 (centres undefined)	0.02	0.13
CC(=O)N1CCc2cc(NC(=O)CSc3nnc4ccccn34)ccc21	1.29	.
CCOC(=O)c1ccc2c(c1)NC1(CCOCC1)C(=NC1CCCCC1)N2	.	0.14
Cc1snnc1C(=O)Oc1ccccc1-c1nnco1	-2.49	.
CCOC(=O)C1CCCN(c2c(N3CCN(c4ccccn4)CC3)c(=O)c2=O)C1 (centres undefined)	-0.01	0.45
O=C(Nc1ccc(S(=O)(=O)N2CCCCC2)cc1)c1nn(-c2ccc(Cl)cc2)ccc1=O	-1.67	0.84
Oc1ccccc1CN1CCCN(Cc2ccccc2O)C1	-0.71	.
COc1cc(S(=O)(=O)n2ccnc2C(C)C)c(OC)cc1Cl	-0.19	-2.71
Cc1nn(CC(=O)NCC2CCCO2)c(=O)c2cc3occc3n12 (centres undefined)	-0.02	-0.09
CCc1cc2c(Nc3cc(F)ccc3F)ncnc2s1	.	1.2

# The list goes on.
SMILES	CDC25B-CDK2 inh	TAR Tat displ
COC(=O)c1sc2cccc(F)c2c1S(=O)(=O)N1CC=C(c2ccccc2)CC1	.	0.08
O=C1c2ccccc2-c2onc3c(N4CCCCC4)cc(NCCO)c1c23	11.7	22.9*
CSCCC(NC(=O)c1cccnc1SC)C(=O)O (centres undefined)	-0.63	.
COC(=O)C1c2ccccc2-c2ccccc21	-0.06	0.81
Cc1nn(-c2ccccc2)c2[nH]c(C(F)(F)F)cc(=O)c12	-0.82	.
COc1ccc(Cc2nc(C(C)(C)C)cs2)cc1	-1.55	.
CC(C)(C)c1ccc(C2C(C(=O)c3ccco3)=C(O)C(=O)N2Cc2cccnc2)cc1 (centres undefined)	0.81	-0.2
COc1ccc(-c2noc(Nc3cccc(SC)c3)n2)cc1	-1.53	1.15
CCCCN(CC)CCNS(=O)(=O)c1ccc2c(c1)NC(=O)CO2	.	1.41
CC(C)CCN(Cc1ccco1)C(=O)Cn1ncc2c([nH]c3ccccc32)c1=O	.	0.75
O=C(CSc1cc(-c2ccccc2)ncn1)c1c[nH]c2ccccc12	-5.09	-3.66
c1ccc(OCc2nn3c(-c4ccncc4)nnc3s2)cc1	1.42	-0.61
C=CCN(Cc1nc(-c2ccc(C)cc2)no1)C(=O)Nc1ccc(C)cc1	-0.28	0.29
CCc1nn(CC(=O)NCc2ccco2)c(=O)c2cc3cc(F)ccc3n12	-1.03	1.86
COc1ccc(S(=O)(=O)n2nc(C)c(S(=O)(=O)N3CCCC3)c2C)cc1	.	0.17
CCOC(=O)Cn1c(=O)c(C(=O)NC(=O)OCC)cn(Cc2ccco2)c1=O	-0.88	.
O=C(CSc1c2c(nc3ccccc13)CCC2)Nc1ccc2c(c1)OCCO2	-1.98	.
